MLL AF4-AF9 inh: inhibitors of AF4 peptide binding to AF9, primary screen, biochemical, AlphaScreen, biotin-AF4 peptide, FLAG-AF9, single point; inhibition, % at 10 µM; hit rate 0.47% among 350,000;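 active means every replicate reaching a set inhibition limit, whatever the replicate mean, cut at about 25% in these data; inconclusive means mean inhibition reaches that limit but some replicates miss it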;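 further: 0% = plate neutral control median and 100% = total signal loss; the record names both 10 and 1 µM as test concentration; the first replicate is given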
Target sequence (P42568 whole entry, looked up): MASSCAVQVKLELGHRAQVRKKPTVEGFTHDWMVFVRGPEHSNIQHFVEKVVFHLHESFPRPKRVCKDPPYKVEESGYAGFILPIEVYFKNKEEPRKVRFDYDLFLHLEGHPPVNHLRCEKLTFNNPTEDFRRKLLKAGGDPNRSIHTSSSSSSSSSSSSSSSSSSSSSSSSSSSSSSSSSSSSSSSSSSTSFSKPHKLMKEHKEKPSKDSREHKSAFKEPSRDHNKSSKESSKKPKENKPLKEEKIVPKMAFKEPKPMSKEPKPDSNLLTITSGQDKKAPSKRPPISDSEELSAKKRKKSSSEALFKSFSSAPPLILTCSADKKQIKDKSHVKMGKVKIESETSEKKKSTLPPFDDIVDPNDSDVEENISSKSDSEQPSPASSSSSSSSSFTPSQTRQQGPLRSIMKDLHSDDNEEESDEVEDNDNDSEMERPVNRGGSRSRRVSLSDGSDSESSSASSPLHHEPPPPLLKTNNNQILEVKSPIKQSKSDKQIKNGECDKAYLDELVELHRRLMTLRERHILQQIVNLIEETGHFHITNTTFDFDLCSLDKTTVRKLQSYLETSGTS
RanGTP-Imp inh: inhibitors of RanGTP-importin-beta interaction, primary screen, biochemical, FRET, CFP-Ran, YFP-importin-beta, homogeneous; hit rate 1.1% among 300,000; inhibition, % (no concentration beside the values); cell-free CFP-Ran/YFP-importin-beta FRET ratio; AID 2216, 2009;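 active means most replicates above 15%; inconclusive means exactly half above 15%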;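 further: 0% = DMSO wells and 100% = Ran loaded with GDP instead of GTP; wells of about 40 µL received 100 nL stock; the first replicate is given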
T cruzi repl: inhibitors of intracellular T. cruzi growth, primary screen, luminescence, NIH3T3 host cells; T. cruzi beta-gal in NIH3T3, 90 h; inhibition, % (no concentration beside the values); hit rate 1.4% among 300,000; AID 1885, 2009;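 active means mean inhibition across valid replicates above about 55%, limit read from the data; inconclusive means mean below that limit but half or more replicates reach it; inactive means mean below it, under half of replicates reach it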;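 further: signal also drops with host cell toxicity which is not excluded here; 0% = plate median of DMSO wells and 100% = zero luminescence signal; higher percent means less beta-gal luminescence so fewer parasites; stock transfer was 50 nL into about 50 µL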
Beta apoptosis: inhibitors of cytokine-induced beta cell apoptosis, primary screen, luminescence; hit rate 0.8% among 300,000; AID 435005, 2010; INS-1E cytokine-induced death, ATP luminescence, 48 h; percent of positive-control rescue, neutral wells zero; protection from apoptosis, % (concentration not given with the values);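 active means all replicates at 75% or more, or half of them and the mean; inconclusive means half reach 75% but not the mean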;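 further: 0% = cytokine-treated negative control wells and 100% = positive control rescue; higher means more ATP so stronger rescue from cytokine killing; wells of about 40 µL received 100 nL stock; the first replicate is given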
Calb FLC: C. albicans growth inhibition with fluconazole, primary screen, CaCi-2 strain, Alamar Blue fluorescence; C. albicans CaCi-2 (fluconazole-resistant clinical isolate) + fluconazole, 48 h; growth inhibition, % (test concentration not listed); hit rate 0.57% among 300,000; AID 1979, 2009;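 active means most replicates above 75%; inconclusive means exactly half above 75%; inactive means most below 75%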;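 further: all wells also contain fluconazole at 8 µg/ml as a sub-toxic cotreatment; 0% = median of DMSO wells and 100% = median of geldanamycin control wells; wells of about 8 µL received 7.5 nL stock; the first replicate is given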
Ecoli rRNA inh: reduced GFP signal of wild-type E. coli, primary screen, bacterial rRNA inhibitor project, GFP/RFP fluorescence, OD600, single point; E. coli WT GFP vs humanized-ribosome RFP mutants, 24 h; hits give low values; DMSO median 0, no signal -100; GFP signal change (wild-type ribosome), % (concentration not given with the values); hit rate 1.6% among 350,000; AID 720706, 2013;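 active means significant combined selectivity score with lowered wild-type GFP, culture density cut under 30%, mutant RFP and density less affected; inactive means any of these conditions unmet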; further: one replicate is shown; some compounds called inactive have numbers as strong as hits
Bfl-1 A1 inh: caspase 3/7 activation in MEF A1-2A-BIM cells, primary screen, A1 inhibitor project, cell-based, luminescence, HTS | Caspase-Glo 3/7 luminescence, 3 h; percent of clofoctol response, vehicle zero | caspase activation, % (concentration not given with the values) | hit rate 0.066% among 330,000;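 active means over half of replicate activation scores above 10%, or exactly half above 10 with the replicate mean above 10; inconclusive means replicate mean below 10 yet half the replicates above 10; inactive means over half of replicates below 10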;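 further: wells of about 30 µL received 50 nL stock; many hits fall short of the cut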
Vif TR-FRET: inhibitors of Vif binding to APOBEC3G peptide, primary screen, biochemical, TR-FRET, GST-Vif 1-94, biotin-A3G peptide, dose response retest (AID 1117319); one-dose inhibition, %; IC50 in µM for titrated hits; TR-FRET GST-Vif / biotin-A3G peptide binding; higher % means a stronger effect; test concentration not given here; strong numbers were not always called active; Virion infectivity factor (Human immunodeficiency virus type 1 group M subtype B (isolate …; hit rate 0.57% among 260,000;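 active means above the screen mean plus three standard deviations and confirmed in dose response; inconclusive means results disagree or hit not tested in dose response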;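 further: Vif residues 1-94 fused to GST binding biotinylated APOBEC3G peptide 110-148; 0% = full assay without inhibitor and 100% = GST in place of GST-Vif; retest series ran down from 100 µM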
Ecoli rRNA inh OD600: recorded beside Ecoli rRNA inh, whose call it bears; OD600 change, %; measured here: OD600 growth;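 optical density of the mix in the first replicate; 0 = DMSO median and -100 = no signal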
Ecoli rRNA inh RFP: also measured in Ecoli rRNA inh; calls as there; RFP signal change, %; measured here: RFP humanized mutant strains;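 first replicate; 0 = DMSO median and -100 = no signal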
Starred values were filed as active, the others as inactive; u = inconclusive; x = not tested or not shown; & = joins results of further samples. The list is partial; the hit share may differ from the screen's.

mol	MLL AF4-AF9 inh	RanGTP-Imp inh	T cruzi repl	Beta apoptosis	Calb FLC	Ecoli rRNA inh	Ecoli rRNA inh OD600	Ecoli rRNA inh RFP	Bfl-1 A1 inh	Vif TR-FRET
Cc1ccc(NC(=S)N2CCC(c3ccc(C)cc3)C2)cc1 (centres undefined)	4.1	1.6	-3	-4	-9	-15	-5	-5.9	0.2	-6%
COc1ccc(CNC(=O)CCc2nnc3ccc(NCCCN4CCCC4=O)nn23)cc1	-0.4	-2.6	-12	-1	2	3	9	-0.6	0.9	x
O=S(=O)(NCCc1csc(-c2cccnc2)n1)c1ccc(F)cc1	-1.4	2.6	0	-2	-3	0	3	3.0	0.2	x
O=C(c1cc2ccccc2o1)N1CCOCC1	-1.3	3.7	-17	-1	1	4	14	0.8	0.5	1%
O=C(CSc1n[nH]c(-c2cccnc2)n1)Nc1cccc(Cl)c1	-1.4	4.2	6	2	0	-14	-20	2.2	-0.1	x
COc1ccc(OC)c(NC(=O)CC(NC(C)=O)c2ccccc2)c1 (centres undefined)	-1.2	-0.8	-8	-4	-1	-37	-69	-12	-0.4	1%
Cc1ccc(NC(=S)NCCc2ccccc2)nc1	-1.0	u	29	-4	-22	7	11	0.0	-0.1	2%
O=C(N/N=C/c1ccccc1O)C1CC(=O)N(c2ccc(Cl)cc2)C1 (centres undefined)	-0.9	4.4	7	84*	-1	-22	-26	-4.5	-1.4	3%
CC(=O)Nc1ccc(NC(=O)COc2ccc([N+](=O)[O-])cc2)cc1	0.8	-1.1	-15	0	u	6	6	-1.6	-0.5	x
Cc1nc(NC(=S)NC(=O)c2cccs2)sc1C(=O)N(C)C	u	-8.9	-1	-5	u	-11	-1	2.9	-0.2	-3%
CSc1cccc(CN2CCC(CO)(Cc3cccc(C(F)(F)F)c3)CC2)c1	3.6	1.4	43	4	9	-48	-81	-13	2.4	-13%
CNC(=O)CSc1nc(-c2ccccc2)c(-c2ccccc2)o1	2.0	-3.5	1	-3	0	-5	-13	-4.3	-1.3	6%
CN1CCN(C(=O)c2cnn3c(C(F)(F)F)cc(-c4ccc5c(c4)OCO5)nc23)CC1	x	-0.2	1	-3	-3	-2	-6	-1.0	0.1	u
Cc1ccc(OCC(=O)OCC(=O)Nc2sccc2C(N)=O)cc1C	x	2.6	-9	-8	3	x	x	x	0.6	10%
CN(CCOc1ccccc1)CC(O)COCc1ccccc1F (centres undefined)	0.7	-4.5	55*	7	-21	2	3	6.5	0.1	2%

The list goes on:
mol	MLL AF4-AF9 inh	RanGTP-Imp inh	T cruzi repl	Beta apoptosis	Calb FLC	Ecoli rRNA inh	Ecoli rRNA inh OD600	Ecoli rRNA inh RFP	Bfl-1 A1 inh	Vif TR-FRET
CCOC(=O)c1ccc(S(=O)(=O)Nc2cc(C(C)(C)C)no2)cc1	x	-0.8	12	-13	15	x	x	x	0.0	2%
COC(=O)c1cc(-c2ccc(OC)cc2)nc2nc(SC)[nH]c(=O)c12	0.0	3.3	-4	-2	-6	-1	6	-1.4	0.1	x
O=C(Nc1ccccc1)Nc1nnc(Cc2ccc(F)cc2)s1	-0.4	3.9	-7	2	4	16	18	2.4	1.0	x
O=C(CN1C(=O)COCC1=O)N1CCOCC1	x	-2.2	-10	1	4	x	x	x	-0.3	0%
CCOC(=O)N1CCC(NC(=O)C2CCCN(S(=O)(=O)c3cccnc3)C2)CC1 (centres undefined)	-2.7	1.5	-11	-5	8	8	5	-1.3	0.3	17%
CCn1cc(C(=O)NC(=S)Nc2sc3c(c2C(=O)OC)CCCCCC3)cn1	x	2.7	7	2	0	x	x	x	-0.3	x
COCCNC(=O)CN(C)S(=O)(=O)c1ccc(Br)cc1	x	-1.1	-10	-3	0	x	x	x	0.7	u
Cc1ccccc1NC(=O)c1sc(Cl)nc1C	-2.8	-4.8	-15	2	-6	8	9	6.2	-0.5	5%
Cc1c(NC(=O)CSc2ncn[nH]2)c(=O)n(-c2ccccc2)n1C	x	5.8	-5	-1	11	17	9	-1.8	-1.4	-1%
N#CC(=Cc1ccc(O)cc1)C(N)=C(C#N)C#N	2.1	x	x	-11	x	11	6	13	-0.4	x
CCOC(=O)CCc1c(C)c2ccc3c(c2oc1=O)CN(CCCO)CO3	-1.5	14	-1	1	1	3	2	1.0	0.5	-6%
O=C(NCc1ccncc1)C(=O)Nc1nc(C23CC4CC(CC(C4)C2)C3)cs1	x	-0.7	-1	2	14	x	x	x	0.0	x
CC(OC(=O)c1cccs1)C(=O)NCCc1ccccc1 (centres undefined)	-1.1	-2.2	-4	3	4	-2	4	1.0	-0.4	x
COCC1=C(C(=O)OC)C(c2ccco2)n2ncnc2N1 (centres undefined)	-2.4	-1.7	-8	-1	19	11	-7	-1.8	-0.3	-10%
CC1CCN(C(=O)CCc2nc3cc(S(=O)(=O)N(C)C)ccc3n2C)CC1	x	1.2	10	0	-19	x	x	x	0.4	66%

Later entries:
mol	MLL AF4-AF9 inh	RanGTP-Imp inh	T cruzi repl	Beta apoptosis	Calb FLC	Ecoli rRNA inh	Ecoli rRNA inh OD600	Ecoli rRNA inh RFP	Bfl-1 A1 inh	Vif TR-FRET
O=C(CCNC(=O)c1ccc(Br)cc1)NNC(=O)c1ccccc1O	-0.8	0.6	-4	5	0	-5	4	-1.3	-0.1	-9%
COc1cc(C(=O)OCCN2CCOCC2)ccc1O	x	-1.1	-2	0	-3	x	x	x	-1.5	7%
OC1(c2cccc(C(F)(F)F)c2)CCN(Cc2nnnn2Cc2ccccc2)CC1	-1.5	2.6	8	-5	5	-6	-5	0.3	0.5	-16%
CCOc1ccc2c(c1)nc(C)n2C	x	4.5	-3	-2	-16	11	-1	0.9	2.0	28%
CCCCn1c(N)c(N(CCOC)C(=O)c2cccc(S(=O)(=O)N(C)c3ccccc3)c2)c(=O)[nH]c1=O	u	7.9	3	-4	15	-3	-10	1.7	0.1	3%
CCc1ccccc1NC(=O)CCCN1C(=O)c2cccnc2C1=O	-1.9	0.9	-7	-5	1	20	10	-2.5	0.1	9%
CCC(=O)Nc1ccc(Br)cn1	-2.6	-2.0	7	-6	-21	6	2	-1.7	-0.2	-8%
COCC1CCN(Cc2cn[nH]c2-c2ccc(OC)c(F)c2)C1 (centres undefined)	1.4	-1.3	14	1	u	6	6	-12	-1.4	22%
O=C(NN1CCOCC1)c1cc(-c2ccc(Br)cc2)nc2ccccc12	x	-0.3	2	-11	-2	x	x	x	0.5	-12%
COc1ccc(-c2noc(CN(C(=O)c3c(-c4ccccc4Cl)noc3C)C(C)C)n2)cc1	x	-3.4	43	-12	7	x	x	x	0.7	4%&-10%
CCOC(=O)c1c(S(=O)(=O)Nc2ccccn2)c(C)n(C)c1C	0.1	0.0	-8	x	1	11	16	2.3	2.5	0%
O=C(CN(Cc1ccc(Br)cc1)S(=O)(=O)c1ccccc1)NCc1cccnc1	-3.2	2.3	3	-2	0	-27	-22	2.7	0.0	2%
NC(=O)c1ccc(NC(=O)CCCN2C(=O)NC3(CCCC3)C2=O)cc1	-2.0	x	x	-2	x	7	16	-0.5	-0.6	x
Cc1cc(C)cc(NC(=O)C2C3C=CC4(O3)C2C(=O)N(CCCN(C)C)C4C(=O)NC2CCCC(C)C2C)c1 (centres undefined)	3.3	-0.3	-3	-6	5	4	-3	1.8	0.6	x
Cc1ccccc1OCCCC(=O)Nc1ccccc1C(F)(F)F	x	0.8	0	-4	-2	x	x	x	1.5	4%

Other compounds:
mol	MLL AF4-AF9 inh	RanGTP-Imp inh	T cruzi repl	Beta apoptosis	Calb FLC	Ecoli rRNA inh	Ecoli rRNA inh OD600	Ecoli rRNA inh RFP	Bfl-1 A1 inh	Vif TR-FRET
Cc1cnc(C(=O)OCC(=O)Nc2cccc(C)c2C)cn1	9.2	x	x	-8	x	0	-2	1.2	0.1	x
COc1ccc(C2CC(=O)c3cnc(NC(=O)c4cc(OC)cc(OC)c4)nc3C2)cc1 (centres undefined)	-0.2	4.7	0	-2	19	-6	0	4.6	-0.7	-5%
O=C(c1cc(=O)[nH]c2ccccc12)N1CCN(c2cccc(C(F)(F)F)c2)CC1	1.8	5.3	2	3	-2	-9	-14	12	0.0	-3%
N#Cc1ccc(S(=O)(=O)N2CCN(C(=O)C3CC(=O)N(c4ccc5c(c4)OCCO5)C3)CC2)cc1 (centres undefined)	0.2	x	x	-4	x	10	9	-2.1	0.0	-7%
Nc1nnn(CC(=O)N/N=C/C=C/c2ccccc2)n1	-0.8	-10	-1	-10	8	13	10	3.1	0.9	0%
CC1CN(C(=O)CCC(=O)NCCCc2ccccc2)c2ccccc2O1 (centres undefined)	-16	-4.1	8	-1	-16	-2	1	-0.9	0.3	x
Cc1nc(S(=O)(=O)c2cccc(Cl)c2)nc2c1CCC2	x	-3.7	4	-4	-1	x	x	x	0.4	u
COc1cc(OC)c(C(=S)N2CCCC2)cc1OC	-7.1	2.6	-19	-2	1	18	6	2.5	2.1	x
O=C(CCC1COc2ccccc2O1)NC1CCCCC1 (centres undefined)	x	-0.2	1	-2	-38	x	x	x	0.8	24%
COc1ccc(CNCc2ccc3ccccc3c2)c(OC)c1	4.4	-0.6	27	1	-29	0	1	1.1	0.4	2%
COc1ccc(-n2c(SCC(=O)Nc3ccc(C(=O)O)cc3)nnc2-c2ccccc2)cc1OC	1.6	-0.4	-11	-3	x	7	7	7.1	0.1	5%
O=C(CSc1cn(CCNC(=O)c2cccs2)c2ccccc12)NCC1CCCO1 (centres undefined)	1.1	2.9	-14	-10	0	8	6	-0.1	-0.3	2%
O=[N+]([O-])c1cc(-c2cnc3ccccc3n2)ccc1Oc1ccc(F)cc1	x	0.6	-8	-7	-4	x	x	x	-0.2	-1%
Cc1ccc(C(=O)NCCCNc2ccccc2[N+](=O)[O-])cc1	1.3	-2.8	6	-5	4	-31	-41	-8.1	-0.4	x
CCC(C)(C)NC(=O)C(c1ccc(OC)cc1)N(Cc1ccc(OC)cc1)C(=O)CCC(=O)Nc1cc(C)on1 (centres undefined)	5.9	1.0	0	-1	13	-7	-3	-0.6	0.3	x
O=C(OCC(=O)N1CCCC1)c1cc(Cl)ccc1Cl	-2.3	9.2	-8	0	-3	7	5	1.4	-0.3	5%
Cc1cc(C)c2nc(-c3ccncc3)cc(C(=O)N3CCN(Cc4ccccc4Cl)CC3)c2c1	8.2	1.5	61*	x	4	6	1	12	-0.1	15%
CCSCc1nnc(SCC(=O)Nc2nc(C)cs2)n1C	-2.4	2.0	2	-3	-29	10	6	-9.4	-0.2	-2%

Screening data deposited in PubChem by several laboratories.
